CHT allo act: allosteric activators of human choline transporter CHT; Q9GZV3; CHT-expressing cells, membrane potential dye, choline EC20; active compounds read high; LV-AA mutant CHT in HEK293 cells; B-score at 10 µM; 310,000 tested, 0.49% active;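 active = initial fluorescence not abnormally high and integrated response B-score, plate-corrected, over 3 SD above library mean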
Target sequence (Q9GZV3 whole entry, looked up): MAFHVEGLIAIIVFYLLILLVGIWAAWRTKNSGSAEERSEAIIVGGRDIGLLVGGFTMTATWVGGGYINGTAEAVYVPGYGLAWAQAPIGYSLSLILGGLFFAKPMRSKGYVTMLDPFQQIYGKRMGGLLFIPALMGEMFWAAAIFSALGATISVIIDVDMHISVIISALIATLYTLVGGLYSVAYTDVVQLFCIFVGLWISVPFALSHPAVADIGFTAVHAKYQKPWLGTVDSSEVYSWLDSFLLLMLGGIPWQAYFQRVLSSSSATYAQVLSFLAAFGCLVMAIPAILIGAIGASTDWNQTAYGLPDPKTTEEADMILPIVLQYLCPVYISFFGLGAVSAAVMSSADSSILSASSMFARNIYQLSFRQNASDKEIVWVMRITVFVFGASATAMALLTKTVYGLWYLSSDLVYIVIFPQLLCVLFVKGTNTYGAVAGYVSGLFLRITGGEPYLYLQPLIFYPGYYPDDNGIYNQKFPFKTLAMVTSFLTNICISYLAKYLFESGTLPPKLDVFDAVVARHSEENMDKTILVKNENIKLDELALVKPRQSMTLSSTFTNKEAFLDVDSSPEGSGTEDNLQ
Calls only; i = inactive. Some of the compounds tested, and most or all hits are left out here.

COc1ccc(NC(=O)Cn2nc(C)c([N+](=O)[O-])c2C)cn1
  CHT allo act: i

Cc1ccsc1C(=O)OCC(=O)NCc1ccco1
  CHT allo act: i

CCOc1ccccc1N1CCN(S(=O)(=O)c2cccc3nsnc23)CC1
  CHT allo act: i

CSC1=NC2(C[C@H]2c2ccccc2)C(=O)N1C (some centres undefined)
  CHT allo act: i

COc1ccc(NC(=O)CN(C)C(=O)c2cc(-c3ccc(OC)cc3)nc3ccccc23)cc1
  CHT allo act: i

Cn1c(=O)c(-c2ccccc2)nn2c3ccccc3nc12
  CHT allo act: i

COCCCNc1ncnc2c1sc1nc(-c3ccco3)c3c(c12)CC(C)(C)OC3
  CHT allo act: i

CCn1ccc(C(=O)NC2=NCCS2)n1
  CHT allo act: i

CC(=O)NC(Cc1cccc(F)c1)C(=O)NC1CCN(C(=O)c2ccc(C)cc2)CC1 (centres undefined)
  CHT allo act: i

O=C(NCCOc1ccccc1)C1CCC(=O)N(C2CCCCCC2)C1 (centres undefined)
  CHT allo act: i

CCOc1ccc(CCNC(=O)C2CCCN(c3nn4c(=O)cc(C)nc4s3)C2)cc1 (centres undefined)
  CHT allo act: i

Cc1nnc(SCC(=O)N2c3ccccc3C(C)(c3ccc(Cl)cc3)CC2(C)C)s1 (centres undefined)
  CHT allo act: i

Cc1cc(O)cc2c1O[C@@](C)(CCC[C@@H](C)CCC[C@@H](C)CCCC(C)C)CC2
  CHT allo act: i

CCc1ccc(NC(=O)C2=CC(c3ccc(OC)cc3)=NS(=O)(=O)N2C)cc1
  CHT allo act: i

C(=N\N1CCN(Cc2ccccc2)CC1)/c1cccnc1
  CHT allo act: i

Cc1c(OC(C)C(=O)NCCN2CCOCC2)ccc2c3c(c(=O)oc12)CCCC3 (centres undefined)
  CHT allo act: i

O=C(/C=C/c1cccc([N+](=O)[O-])c1)OC1CCCCC1=O (centres undefined)
  CHT allo act: i

COc1ccc(N2CCN(C(CNC(=O)C(=O)NCc3ccc4c(c3)OCO4)c3ccco3)CC2)cc1 (centres undefined)
  CHT allo act: i

COC(=O)NCC(c1cccnc1)N1CCN(c2ccccc2F)CC1 (centres undefined)
  CHT allo act: i

CC(C)(Oc1ccc(Cl)cc1)C(=O)NC1CCCCC1
  CHT allo act: i

O=C(NCc1ccco1)/C(=C/c1cccc([N+](=O)[O-])c1)NC(=O)c1ccco1
  CHT allo act: i

CN(c1cccc(NC(=O)c2ccccc2N(C)S(C)(=O)=O)c1)S(C)(=O)=O
  CHT allo act: i

Cc1ccc(S(=O)(=O)N2CCN(C(C)C(=O)N3CCCc4ccccc43)CC2)cc1 (centres undefined)
  CHT allo act: i

CCCN(CCC)S(=O)(=O)c1ccc(C(=O)NCc2n[nH]c(=S)n2-c2ccc(Cl)c(Cl)c2)cc1
  CHT allo act: i

CC(=O)Nc1ccc(Nc2ncnc3c2cnn3-c2ccc(C)cc2C)cc1
  CHT allo act: i

O=[N+]([O-])c1ccc(S(=O)(=O)Nc2cccc(-c3ccc(N4CCCC4)nn3)c2)cc1
  CHT allo act: i

COC(=O)c1cc(OC(=O)c2ccc(=O)[nH]c2)cc(C(=O)OC)c1
  CHT allo act: i

Cc1occc1-c1nnc(SCC(=O)N(C)C)o1
  CHT allo act: i

N#Cc1nc(-c2ccco2)oc1NCCc1ccccc1
  CHT allo act: i

C#CCOCCOCCOCCNc1nc(N2CCN(C(=O)[C@H](CCC(=O)O)n3cc(C(N)CO)nn3)CC2)nc(N2CCN(C(=O)[C@H](CCC(=O)O)n3cc(C(N)[C@H](C)CC)nn3)CC2)n1 (some centres undefined)
  CHT allo act: i

CC(NC(=O)CCCCCCN1C(=O)c2ccccc2C1=O)c1ccc2c(c1)CCCC2 (centres undefined)
  CHT allo act: i

Cc1ccc(S(=O)(=O)Oc2ccc(/C=N/NC(=O)c3ccncc3)cc2)cc1
  CHT allo act: i

COc1cccc(CC(NC(C)=O)C(=O)NC2CCN(C(=O)C3CC3)CC2)c1OC (centres undefined)
  CHT allo act: i

O=C(NCc1ccco1)c1nn2c(C(F)(F)F)cc(-c3cccs3)nc2c1Br
  CHT allo act: i

CN(C(=O)CSc1nc(-c2ccccc2)cn1N)C(c1ccccc1)c1ccccc1
  CHT allo act: i

N#CCSc1n[nH]c2nc3c(c(=O)n12)C1(CCCC1)Cc1ccccc1-3
  CHT allo act: i

O=C(CN(CC1CCCO1)C(=O)CNS(=O)(=O)c1ccc(Cl)cc1)NCc1ccc(F)cc1 (centres undefined)
  CHT allo act: i

CC1Cc2ccccc2N1Cc1nc2cc(Cl)ccc2c(=O)[nH]1 (centres undefined)
  CHT allo act: i

O=C(c1cccc(S(=O)(=O)Nc2cccc(C(F)(F)F)c2)c1)N1CCCCC1
  CHT allo act: i

Cc1ccc(Cl)c2c1NC(=O)C2(O)CC(=O)c1ccc(Br)cc1 (centres undefined)
  CHT allo act: i

Cc1ccc(NC(=O)C2(S(=O)(=O)c3ccc(C)cc3)CC2)cc1
  CHT allo act: i

COC(=O)c1ccc(CNC(=O)Cn2nnnc2CN(C)C(C)C)cc1
  CHT allo act: i

Cc1cc(=O)n2nc(N3CCCC(C(=O)NCc4ccc5c(c4)OCO5)C3)sc2n1 (centres undefined)
  CHT allo act: i

COc1ccc(-c2nc(SCC(=O)N(CC(C)C)c3c(N)n(Cc4ccccc4)c(=O)[nH]c3=O)n[nH]2)cc1
  CHT allo act: i

CCS(=O)(=O)c1nc(S(=O)(=O)c2ccc(Cl)cc2)c(N2CCC3(CC2)OCCO3)s1
  CHT allo act: i

COc1ccc(Cc2nnc(NC(=O)c3cccs3)s2)cc1
  CHT allo act: i

O=C1c2cccc3cccc(c23)C(=O)N1c1ccccc1Cl
  CHT allo act: i

COc1ccccc1CN1CCNC(=O)C1CC(=O)N(C)Cc1nc(C)cs1 (centres undefined)
  CHT allo act: i

C=CCn1c(SCC(=O)N(CC)C2CCS(=O)(=O)C2)nc2ccccc2c1=O (centres undefined)
  CHT allo act: i

Cn1nc(CC(=O)NCc2cccc3ccccc23)c2ccccc2c1=O
  CHT allo act: i

CC(C)C(=O)N1CCN(c2ccccc2NC(=O)COc2ccccc2)CC1
  CHT allo act: i

Cc1cc(N2CCC(C(N)=O)CC2)nc(-c2ccccc2)n1
  CHT allo act: i

COC(OC)c1ccc(C#N)c(SCc2ccccc2)n1
  CHT allo act: i

CS(=O)(=O)N(CC(=O)Nc1ccc(Br)cc1)C1CCCCC1
  CHT allo act: i

CC(=O)Nc1nc2c(C)c(Cl)ccc2s1
  CHT allo act: i

CSc1nc(C)cc(-n2cc(F)c(=O)[nH]c2=O)n1
  CHT allo act: i

CCCC1Cc2[nH]c(=O)c(C#N)cc2CO1 (centres undefined)
  CHT allo act: i

COCCN1C(=O)C(=O)/C(=C(/O)c2ccc(S(=O)(=O)N3CCOCC3)cc2)C1c1cccc(OC)c1 (centres undefined)
  CHT allo act: i

CCC(=O)Nc1ccccc1C(=O)N1CCOCC1
  CHT allo act: i

O=C(OCC(=O)N1CCCC1)c1ccc(O)cc1
  CHT allo act: i

Cc1nnc(-c2cnn(-c3ccccc3)c2N)n1Cc1ccc(F)cc1
  CHT allo act: i

O=S(=O)(NC1CCCCC1NS(=O)(=O)c1ccc(F)cc1)c1ccc(F)cc1 (centres undefined)
  CHT allo act: i

Cc1cc(/C=C2/SC(=O)N(CC(=O)OC(C)C)C2=O)c(C)n1C
  CHT allo act: i

CCCn1c(C(C)NS(=O)(=O)c2ccccc2)n[nH]c1=S (centres undefined)
  CHT allo act: i

Cc1ccc(C)c(NC(=O)c2ccc(OC(=O)c3ccco3)cc2)c1
  CHT allo act: i

O=S(=O)(c1ccc2ccccc2c1)N1CCNCC1
  CHT allo act: i

Cc1nnc(SCC(=O)N(Cc2ccccc2)C(C)(C)C)[nH]c1=O
  CHT allo act: i

Cc1ccccc1C1NC(=O)c2ccccc2O1 (centres undefined)
  CHT allo act: i

Cc1[nH]nc(Nc2ccc(C(C)C)cc2)c1[N+](=O)[O-]
  CHT allo act: i

O=c1[nH]c(CN2CCN(c3ccc([N+](=O)[O-])cc3)CC2)nc2ccsc12
  CHT allo act: i

Fc1ccc(NC(=S)N2CCn3cccc3C2c2cccnc2)cc1 (centres undefined)
  CHT allo act: i

Cc1ccc(N2CC(C(=O)NCc3ccc4c(c3)OCO4)CC2=O)cc1C (centres undefined)
  CHT allo act: i

CCOC(=O)C1CCCN(C(=O)CCNS(=O)(=O)c2cc(Br)cnc2N)C1 (centres undefined)
  CHT allo act: i

CCN(CC)S(=O)(=O)c1cccc2c(N(C)C)cccc12
  CHT allo act: i

CN(CC(=O)Nc1ccc(F)c(F)c1F)C(=O)C1CCN(C(=O)Nc2ccccc2)CC1
  CHT allo act: i

O=C(NCC1CCN(c2ccc(S(=O)(=O)N3CCOCC3)cc2)CC1)c1ccc(Cl)cc1
  CHT allo act: i

Cc1nc2ccc(S(=O)(=O)Nc3cc(-c4nc5cccnc5s4)ccc3C)cc2s1
  CHT allo act: i

CCOC(=O)CSc1nnc(-c2ccc(Cl)cc2Cl)o1
  CHT allo act: i

COC(=O)c1c(NC(=O)c2cccs2)sc2c1CCCC2
  CHT allo act: i

COc1ccc(S(=O)(=O)Nc2cccc(N(C)S(C)(=O)=O)c2)cc1C
  CHT allo act: i

CC(=O)N1c2ccccc2NC(=O)C1(C)C
  CHT allo act: i

COc1cc(NC(=S)NC(=O)c2ccco2)ccc1NC(=O)C(C)C
  CHT allo act: i

Cc1ccc(NC(=S)N2CCCCCC2)c(C)c1
  CHT allo act: i

CC1CCCCN1C(=O)CSc1nc2cc3c(cc2c(=O)n1Cc1ccc2c(c1)OCO2)OCO3 (centres undefined)
  CHT allo act: i

Cc1cccc(S(=O)(=O)NCC2CCCO2)c1 (centres undefined)
  CHT allo act: i

Nc1nonc1-c1nc2ccccc2n1Cc1ccc(F)cc1
  CHT allo act: i

CCCCC(CC)CNC(=O)c1ccc2c(c1)OCO2 (centres undefined)
  CHT allo act: i

Cc1c(Cl)c([N+](=O)[O-])nn1CC(=O)NCc1cccs1
  CHT allo act: i

C=COCCNC(=S)Nc1cccc(Cl)c1
  CHT allo act: i

CCCN(CC1CC1)S(=O)(=O)c1ccc(-n2cnnn2)c(OC)c1
  CHT allo act: i

O=C(N/N=C/C=C\c1ccco1)c1cccnc1
  CHT allo act: i

O=C(O)Cc1coc(-c2ccc(F)cc2)n1
  CHT allo act: i

Cc1ccc(-n2nc3c(c2NC(=O)c2ccc(OC(C)C)cc2)CS(=O)C3)cc1 (centres undefined)
  CHT allo act: i

CCC(C)(C)N1CC(=O)N(Cc2ccccc2)C(c2ccc(OC)cc2)C1=O (centres undefined)
  CHT allo act: i

O=C(CCn1cnc2ccccc2c1=O)Nc1cccc(Cl)c1Cl
  CHT allo act: i

CCOC(=O)C1CCCCN1Cc1ccc(F)c(Br)c1 (centres undefined)
  CHT allo act: i

CCCC(=O)N1CCN(c2ccc(NC(=O)c3sc4ccccc4c3Cl)cc2)CC1
  CHT allo act: i

NS(=O)(=O)c1cc(C(=O)N2CCNC(=O)C2)ccc1Cl
  CHT allo act: i

CC1(c2ccccc2)CC(C)(C)N(C(N)=O)c2ccccc21 (centres undefined)
  CHT allo act: i

O=C(/C=C/c1ccco1)Nc1cccc(NC(=O)/C=C/c2ccco2)n1
  CHT allo act: i

Cc1nc2c(c(-c3ccccc3)c1C#N)C(=O)c1ccccc1-2
  CHT allo act: i

c1ccc(-n2nnnc2NCCCN2CCOCC2)cc1
  CHT allo act: i

COc1ccccc1/C=C(/NC(=O)c1ccc(Cl)cc1Cl)C(=O)O
  CHT allo act: i

Cc1ccc(-c2nnn(C(C)C(=O)N3c4ccccc4CCc4ccccc43)n2)cc1 (centres undefined)
  CHT allo act: i

N#CCC(=O)Nc1ccc(C(=O)OCc2ccccc2Oc2ccccc2)cc1
  CHT allo act: i

CCOc1ccc(CCNC(=O)Cn2nc(C)c3c(C)n(-c4ccccc4)nc3c2=O)cc1
  CHT allo act: i

COc1ccc(-c2nn(-c3ccccc3)cc2CNC(C)Cn2cncn2)c(F)c1 (centres undefined)
  CHT allo act: i

CCCC(c1nnnn1CS(=O)(=O)c1ccc(C)cc1)N1CCC(C(N)=O)CC1 (centres undefined)
  CHT allo act: i

CCCCOc1ccccc1C(=O)NCCCCCC(=O)O
  CHT allo act: i

CCOC(=O)C1CCN(C(=O)N2CCOCC2)CC1
  CHT allo act: i

O=[N+]([O-])c1ccc(C2CCCC/C2=N/OCc2ccc(F)cc2)c([N+](=O)[O-])c1 (centres undefined)
  CHT allo act: i

CC(C)NC(=O)c1cc(=O)n(C)c(=O)n1C
  CHT allo act: i

COc1ccc(C(=O)NCCc2nc3cc([N+](=O)[O-])ccc3n2C)cc1
  CHT allo act: i

C=CCN(C(=O)c1csnn1)C(C(=O)NC1CCCC1)c1ccccc1 (centres undefined)
  CHT allo act: i

O=C1c2ccccc2C(=O)N1CCc1csc(-c2ccc(F)cc2)n1
  CHT allo act: i

Cc1ccc(NC(=O)c2sc3nc(N4CCOCC4)c4c(c3c2N)CC(C)(C)OC4)cc1
  CHT allo act: i

c1ccc(CCc2nn3c(Cn4nnc5ccccc54)nnc3s2)cc1
  CHT allo act: i

CCCCN(C(=O)c1ccc(N(C)S(=O)(=O)c2ccc(C)cc2)cc1)c1c(N)n(CCC)c(=O)[nH]c1=O
  CHT allo act: i

CC(=O)OCC(=O)N1CCN(c2ccc([N+](=O)[O-])cc2)CC1
  CHT allo act: i

CCc1cc(C(=O)c2ccc(OC)cc2)c(NC(=O)CN2CCCC2)s1
  CHT allo act: i

O=C(Nc1ccc2c(c1)OCO2)c1sc2cc(Cl)ccc2c1Cl
  CHT allo act: i

Cc1sc(-c2ccncc2)nc1OC(=O)c1ccc(F)cc1F
  CHT allo act: i

CCC(C(=O)NCC1CCCO1)N(Cc1ccccc1)C(=O)CNS(=O)(=O)c1ccccc1 (centres undefined)
  CHT allo act: i

C=CCSc1nc2c(c(=N)n1CC=C)C1CCCC1S2 (centres undefined)
  CHT allo act: i

Cc1ccc(-c2nnc(SCC(=O)N3CCN(c4ccccc4)CC3)o2)cc1
  CHT allo act: i

Reformatted as comma-separated lines: entries from further up
Compound,CHT allo act
Cc1ccc(-c2nnn(C(C)C(=O)N3c4ccccc4CCc4ccccc43)n2)cc1 (centres undefined),i
CCc1cc(C(=O)c2ccc(OC)cc2)c(NC(=O)CN2CCCC2)s1,i
c1ccc(-n2nnnc2NCCCN2CCOCC2)cc1,i
COc1ccc(-c2nn(-c3ccccc3)cc2CNC(C)Cn2cncn2)c(F)c1 (centres undefined),i
CCOC(=O)C1CCN(C(=O)N2CCOCC2)CC1,i
